HNF4A DNA FP: change in binding of human HNF4A to DNA, primary screen, biochemical, fluorescence polarization, FITC-DNA; AID 1224865, 2016; activity change, % at 10 µM; hit rate 0.3% among 360,000; Hepatocyte nuclear factor 4-alpha (Homo sapiens), P41235; 1 h; in the data active = activity change above about 30%, passing the limit was not always enough;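 also: controls were the assay level and a saturating level of protein; the project sought stronger binding though the title names inhibitors; some compounds called inactive have numbers as strong as hits; positive values seem to mean higher polarization but the record does not say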
FGF22 binding: binders of human FGF22 protein, primary screen, FGF22 synaptogenesis inhibitor project, biophysical, thermal shift, single point; Fibroblast growth factor 22 (Homo sapiens), Q9HCT0; recombinant FGF22 thermal shift, SYPRO orange fluorescence; percent of sucrose octasulfate shift, DMSO zero; calls only at 9.99 µM; hit rate 1.5% among 340,000; AID 651658, 2012;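 active = melting point raised past a set limit in the mean and every replicate; three in four hits are not shown here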
Beta2AR agonist: beta2AR agonists driving receptor internalization, primary screen, cell-based, FAP fluorogen, flow cytometry. Beta-2 adrenergic receptor (Homo sapiens), P07550. Am2.2-beta2AR cells; reference of the scale not given here. response, % (no concentration beside the values). hit rate 0.43% among 340,000;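 active = response above a set limit, near 3 SD of response in nonfluorescent compounds, cut at about 42% in these data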;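 also: stock transfer was 100 nL into about 11 µL; a reference agonist was the positive control; negative values mostly stem from fluorescent compounds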
Target sequence (P07550 whole entry, looked up): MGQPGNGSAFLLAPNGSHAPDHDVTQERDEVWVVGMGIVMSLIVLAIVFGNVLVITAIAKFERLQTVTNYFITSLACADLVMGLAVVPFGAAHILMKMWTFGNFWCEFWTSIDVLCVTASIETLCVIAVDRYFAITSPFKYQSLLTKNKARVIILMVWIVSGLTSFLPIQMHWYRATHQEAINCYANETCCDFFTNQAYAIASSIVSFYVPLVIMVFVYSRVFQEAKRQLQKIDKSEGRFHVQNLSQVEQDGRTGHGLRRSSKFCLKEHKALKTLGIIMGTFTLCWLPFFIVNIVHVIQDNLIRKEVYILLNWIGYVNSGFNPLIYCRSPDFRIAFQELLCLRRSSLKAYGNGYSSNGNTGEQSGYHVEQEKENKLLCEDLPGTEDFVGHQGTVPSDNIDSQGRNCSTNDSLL
ALR inh: inhibitors of human ALR sulfhydryl oxidase, primary screen, biochemical, H2O2 detection, HRP-luminol luminescence, single point. FAD-linked sulfhydryl oxidase ALR (Homo sapiens), P55789. purified ALR, DTT oxidation. hit rate 3.8% among 290,000. inhibition, % (concentration not given with the values);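 active = mean and each replicate at 75% or more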;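 also: stock transfer was 7.5 nL into about 7.5 µL; 0% = neutral wells and 100% = wells with inactivated enzyme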
Target sequence (P55789 whole entry, looked up): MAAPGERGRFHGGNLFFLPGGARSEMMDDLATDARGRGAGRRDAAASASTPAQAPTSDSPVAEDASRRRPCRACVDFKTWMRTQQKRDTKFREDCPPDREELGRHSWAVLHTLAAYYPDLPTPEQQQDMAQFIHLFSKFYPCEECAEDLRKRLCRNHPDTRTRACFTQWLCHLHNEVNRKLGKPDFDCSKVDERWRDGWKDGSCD
UCH37 inh: inhibitors of human UCH37 deubiquitinase, primary screen, biochemical, Ub-AMC cleavage, fluorescence. Ubiquitin carboxyl-terminal hydrolase isozyme L5 (Homo sapiens), Q9Y5K5. purified proteasome/UCH37. inhibition, % (test concentration not listed). hit rate 0.33% among 330,000;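 active = mean of two replicates above 20%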;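 also: 0% = compound-free wells with enzyme and 100% = wells lacking proteasome; stock transfer was 100 nL into about 20 µL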
Target sequence (Q9Y5K5 whole entry, looked up): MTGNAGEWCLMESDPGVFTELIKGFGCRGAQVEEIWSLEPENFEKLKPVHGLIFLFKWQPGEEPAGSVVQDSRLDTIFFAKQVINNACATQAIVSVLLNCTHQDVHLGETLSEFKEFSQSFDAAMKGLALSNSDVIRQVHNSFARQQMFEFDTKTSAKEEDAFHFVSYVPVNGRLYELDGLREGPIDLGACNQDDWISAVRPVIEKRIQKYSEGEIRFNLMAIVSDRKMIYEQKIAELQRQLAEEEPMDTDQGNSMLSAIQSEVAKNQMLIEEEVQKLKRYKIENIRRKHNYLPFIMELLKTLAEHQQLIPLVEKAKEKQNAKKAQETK
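Reagent: Ub-AMC substrate; assay system: Proteasome-associated human UCH37 deubiquitinase; controls: no-proteasome and no-compound wells; read-out: % inhibition of Ub-AMC cleavage fluorescence; timing: 30 min preincubation with enzyme, 25 min cleavage at room temperature; signal: AMC fluorescence from Ub-AMC cleavage, excitation 355 nm, emission 460 nm; buffer or medium: Tris-HCl pH 7.4 plus ovalbumin, ATP-MgCl2, DTT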
LANA-H2B inh: blockers of LANA interaction with H2A/H2B – biochemical, FP readout, HTS, primary screen. Protein LANA1 (Human herpesvirus 8 type P (isolate GK18)), Q9QR71. cell-free LANA-H2A/H2B peptide, fluorescence polarization. inhibition, % (test concentration not listed). hit rate 0.6% among 320,000. AID 2629, 2010; in the data active = inhibition mostly above about 10%, no sharp cut-off; inactive = mostly below about 6.7%;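 also: stock transfer was 7.5 nL into about 10 µL; 0% = median of vehicle wells and 100% = median of positive control wells; one replicate is shown; the record names a cut of 25% in any replicate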
E coli growth: E. coli growth inhibition, primary screen, OD600. Escherichia coli growth, 23 h; active compounds read low. OD600 absorbance (no concentration beside the values). hit rate 0.21% among 330,000;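 active = OD600 absorbance below the run mean of sample wells minus 3.6 SD, in any replicate, cut at about 0.56 in these data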;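 also: stock transfer was 300 nL into about 60 µL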
The depositor's hits bear a star; i = inactive; · = no result given. Not all compounds are listed. The share of hits here may be higher or lower than overall.

canonical_smiles	ALR inh	HNF4A DNA FP	FGF22 binding	Beta2AR agonist	LANA-H2B inh	E coli growth	UCH37 inh
Cc1c(Cl)c([N+](=O)[O-])nn1CC(=O)Nc1ccc2c(c1)OCO2	0.9	-1.0	i	0.5	-0.8	0.711	1.4
Cc1cc(/C=C2\SC(=O)NC2=O)c(C)n1-c1ccc(N2CCOCC2)cc1	62.8	-0.3	i	11.3	-6.9	0.702	2.8
CCC(C)NC(=O)C1CCC(=O)N1Cc1ccc(C)cc1 (centres undefined)	18.2	1.8	·	-0.7	3.7	0.674	-3.0
CC(C)C(NC(=O)CCNC(=O)c1ccccc1Cl)c1nc2ccccc2[nH]1 (centres undefined)	·	0.6	i	0.0	-12.8	0.689	2.6
CCOC(=O)Nc1ccc2c(c1)N(C(=O)N1CCN(C)CC1)c1ccccc1CC2	-3.1	1.1	i	1.9	-4.5	0.663	2.1
OC(c1ccccc1)c1nccn1Cc1ccccc1 (centres undefined)	-5.5	-0.4	·	-2.0	3.7	0.721	2.1
COc1ccc(N(CC(=O)Nc2ccc(OC)cc2OC)S(=O)(=O)c2ccccc2)cc1	-9.6	3.8	i	-5.9	-0.9	0.683	4.0
COc1ccc(CCNC(=O)CSc2nc(C)nc3sccc23)cc1OC	-4.7	-0.8	i	6.8	2.6	0.735	-0.8
CCc1cccc(C)c1NC(=O)COC(=O)CSCc1ccccc1	-6.3	0.3	·	2.2	-1.9	0.726	0.1
CCc1ccc(CN(C)CC(=O)Nc2sccc2C#N)cc1	-2.0	1.1	·	3.1	6.0	0.709	0.5
COc1ccc(NC(=O)c2c(Cl)cnn2C)c(C)c1	-2.3	-0.9	i	2.0	4.4	0.703	-0.4
COc1cc(C=O)cc(OC)c1OS(=O)(=O)c1ccc(NC(C)=O)cc1	-0.3	6.6	·	-3.7	8.0	0.7	5.8
CC(NC(=O)COC(=O)Cn1cc(C(F)(F)F)ccc1=O)c1ccccc1 (centres undefined)	-3.5	-2.0	i	-3.3	4.4	0.674	-1.8
O=[N+]([O-])c1ccccc1S(=O)(=O)Nc1nc2ccccc2s1	-3.0	1.5	i	-3.9	-6.0	0.675	2.3
CCOC(=O)c1c(N2C(=O)Nc3ccccc3N2O)sc2c1CCCCC2	95.1*	0.1	i	-7.2	3.0	0.693	1.0
O=C(c1ccncc1)N(Cc1ccco1)Cc1cc2ccccc2[nH]c1=O	-18.1	-3.2	·	-3.6	1.3	0.669	-8.0
COC(=O)CCC(=O)Nc1ccc(C)cc1OC(=O)CCC(=O)OC	51.8	1.4	·	4.8	2.4	0.784	5.3
COc1ccc(N(CC(=O)NCc2ccco2)S(=O)(=O)c2ccc(C)cc2)cc1	0.6	7.2	·	3.5	2.2	0.719	1.2
Cc1ccc(-c2cc(C(=O)NCc3ccc4c(c3)OCO4)[nH]n2)c(O)c1C	9.1	1.6	·	14.1	-0.5	0.685	4.4
COc1ccccc1-c1c(C)oc2c(CN3CCCCC3C)c(O)ccc2c1=O (centres undefined)	4.1	0.1	i	-2.9	0.7	0.662	i

Reprinted from the results shown, two compounds:
canonical_smiles	ALR inh	HNF4A DNA FP	FGF22 binding	Beta2AR agonist	LANA-H2B inh	E coli growth	UCH37 inh
O=C(c1ccncc1)N(Cc1ccco1)Cc1cc2ccccc2[nH]c1=O	-18.1	-3.2	·	-3.6	1.3	0.669	-8.0
COC(=O)CCC(=O)Nc1ccc(C)cc1OC(=O)CCC(=O)OC	51.8	1.4	·	4.8	2.4	0.784	5.3

(listing goes on)
canonical_smiles	ALR inh	HNF4A DNA FP	FGF22 binding	Beta2AR agonist	LANA-H2B inh	E coli growth	UCH37 inh
Cc1ccc(-c2nnn(CC(=O)N(Cc3cccs3)C(C(=O)NC(C)(C)C)c3ccc(C)o3)n2)o1 (centres undefined)	·	3.3	·	-7.3	0.8	0.703	0.0
CCCCOC(=O)C1=C(C)Nc2ncnn2C1c1cc(OC)c(OC)cc1OC (centres undefined)	-18.5	-1.3	·	-17.9	-3.3	0.719	1.8
CC(C)CN(C(=O)c1cccc(Cl)c1)c1c(N)n(Cc2ccccc2)c(=O)[nH]c1=O	-10.5	2.3	i	-3.2	0.6	0.647	0.8
O=C(Nc1cccc(Cl)c1)NC1CCS(=O)(=O)C1 (centres undefined)	-34.8	3.7	i	0.8	-3.0	0.673	3.8
N#Cc1ccc(-c2nc3ccccc3c(=O)n2O)cc1	-2.1	2.3	i	4.2	1.5	0.675	5.7
c1ccc2c(Nc3nc(-c4ccncc4)nc4ccccc34)cccc2c1	-8.9	2.1	i	6.7	2.0	·	·
CCOC(=O)C1CCCN(C(=O)c2ccc(C)c(S(=O)(=O)N3CCCCC3)c2)C1 (centres undefined)	-0.1	2.7	i	5.5	-3.1	0.635	2.2
O=S1(=O)CC(O)C(NCCO)C1 (centres undefined)	-2.3	-4.4	i	-1.1	-0.5	0.701	4.3
CCN(CC)C(C(=O)Nc1ccc(C(C)C)cc1)c1ccc2c(c1)OCO2 (centres undefined)	·	1.4	·	13.2	3.2	0.682	0.9
CC(C)C[C@H](NC(=O)c1nc[nH]c1C(=O)NCC(=O)OCc1ccccc1)C(=O)OC(C)(C)C	·	4.1	i	-4.8	-1.7	·	1.7
CC(=O)c1ccc(NC(=S)NC(=O)/C=C/c2ccc(F)cc2)cc1	-6.2	2.6	·	-16.4	-0.7	0.685	-0.3
COc1ccc(S(=O)(=O)N2CCC(C(=O)NCCCc3ccccc3)CC2)cc1	-2.2	-3.4	i	-20.9	2.9	0.668	0.0
CCC(=O)Nc1nc2ccc(NC(=O)c3cc(OC)c(OC)c(OC)c3)cc2s1	-7.4	3.1	i	10.6	1.0	0.667	2.5
COCCNC(=S)N(CCc1c(C)[nH]c2ccc(C)cc12)Cc1cccnc1	90.7*	-1.9	i	28.3	4.8	0.661	1.4
COC(=O)C[n+]1cccc2ccccc21	·	-98.7	i	-109.0	-6.6	0.665	-0.5
Cc1ccnc(NC(=O)c2ccc(S(=O)(=O)N3CCCCC3)cc2)c1	0.9	-3.2	i	4.2	2.0	0.713	6.6
Cc1ccc(NC(=O)CSCC(=O)Nc2ccc(N3CCOCC3)cc2N2CCOCC2)cc1	·	1.3	i	2.4	·	0.619	1.8
CCN(C[C@H]1N[C@@](Cc2ccccc2)(C(=O)OC)[C@H]2C(=O)N(Cc3ccccc3)C(=O)[C@@H]12)S(=O)(=O)c1ccc(-c2ccccc2)cc1	·	5.8	i	-6.9	4.0	0.758	7.7
Cc1ccc(-n2c(C)nnc2SCC(=O)NC2CC2)cc1	-16.6	-1.4	i	-9.4	3.2	0.657	1.8
Clc1ccc(-c2nnc3c4ccccc4nc(N4CCOCC4)n23)cc1Cl	19.0	6.4	·	1.2	0.6	0.608	-2.0
CCOC(=O)Cc1csc(NC(=O)c2ccoc2C)n1	4.2	-1.6	·	-8.4	-1.3	0.687	3.3
Fc1cccc(CN2CCN(c3ncccn3)CC2)c1	-3.7	2.5	·	-6.3	0.1	0.676	4.3
COc1ccc(C2SCCN2S(=O)(=O)c2ccccc2)cc1OC (centres undefined)	·	-1.4	·	-4.3	3.6	0.726	2.9
Cc1cnc(CNC(=O)C2CCC(=O)N(CCc3cccc(F)c3)C2)[nH]1 (centres undefined)	-8.1	0.7	i	-0.2	3.9	0.645	0.2
CCCC(=O)Nc1ccc2oc(-c3ccc(OC)c(Br)c3)nc2c1	-21.0	-4.4	·	6.4	-0.6	0.732	-53.4
COc1ccc(C(CC(=O)O)NS(=O)(=O)c2ccc(C)cc2)cc1 (centres undefined)	-2.0	0.1	·	1.8	1.0	0.669	-0.6
O=C(C1CCN(Cc2ccccc2)CC1)N1CCCC1	-12.9	1.2	·	13.5	-1.5	0.695	2.7
COc1ccc(-c2cc(O)cc(O)c2)cc1	55.7	2.7	·	1.8	-3.9	0.615	-0.7
CCCCc1ccc(-c2csc(/C(C#N)=C\c3ccc(C)o3)n2)cc1	28.8	44.7*	i	5.5	3.9	0.742	1.0
Cc1cc(C)c(NC(=O)Cn2c(=O)c3cccn3c3ccccc32)c(C)c1	-2.3	-5.9	i	10.3	-0.4	0.719	-1.3
O=C(OCc1c(-c2ccccc2)ncc2ccccc12)c1ccc(Cl)cc1Cl	-3.4	-2.0	i	1.1	-3.7	0.669	-0.1
Cc1ccccc1NS(=O)(=O)c1ccc(C2CNC(=O)C2)cc1 (centres undefined)	-0.1	-0.9	·	-1.9	6.1	0.644	2.8
CCN(CC)C(=O)CSc1nnc(COc2ccccc2)n1N	-21.0	0.3	i	4.2	3.9	0.696	4.4
COc1cccc(NC(=O)C2CC(=O)OC23CCOC(C)(C)C3)c1 (centres undefined)	-3.7	0.9	·	1.2	13.1*	0.753	1.0
CCc1ccc(NC(=O)Nc2ccc3c(c2)CCC3)cc1	-0.6	7.9	i	3.4	6.9	0.633	3.1
Cc1onc(-c2ccccc2)c1C(=O)Nc1ccc2c(c1)OCO2	-26.0	1.5	·	-9.6	4.6	0.736	5.9
CC[C@]12c3[nH]c4ccccc4c3CCN1C(=O)C(CC(=O)NCCN1CCOCC1)C[C@@H]2C(=O)N1CCN(C(=O)c2ccco2)CC1 (some centres undefined)	2.4	-0.8	i	2.7	-118.0	0.693	1.0
CCc1ccc(N2CC(C(=O)Nc3ccc4c(c3)OCO4)CC2=O)cc1 (centres undefined)	-5.4	4.2	i	4.4	·	0.693	2.7
O=C(CSc1nc2[nH]ncc2c(=O)[nH]1)Nc1ccc(F)cc1	-2.7	-0.3	i	-0.3	-0.3	0.691	4.0
CC1(C)C=Cc2c(c3c(c4c(=O)c(-c5ccc(O)cc5)coc24)OC(C)(C)CC3)O1	·	1.3	i	10.0	1.5	0.68	0.5
Cc1ccc(C(CNC(=O)C(=O)Nc2ccc3c(c2)OCCO3)N2CCN(C)CC2)cc1 (centres undefined)	-2.3	-1.3	i	8.2	-2.5	0.69	4.3
CCc1cccc(CC)c1NC(=O)COn1nnc2ccc(C(F)(F)F)cc21	-0.4	1.6	·	-19.7	0.5	0.716	1.2
Cc1ccc(OCCCC(=O)Nc2ccc(Cl)c(S(=O)(=O)N3CCOCC3)c2)cc1	0.0	5.8	i	-1.9	-1.6	0.666	-0.6
COC(=O)c1sccc1NN1C(=O)c2ccccc2C1=O	3.5	-0.4	i	9.2	1.4	0.681	0.7
CCC(=O)c1ccc(OCC(=O)Nc2ccc(N3CCCCC3)cc2)cc1	-9.1	5.0	i	-1.1	7.7	0.659	-1.5
COc1ccc(F)cc1S(=O)(=O)N1CCN(C(=O)c2ccco2)CC1	-5.0	7.3	i	-4.6	0.6	0.651	0.2
O=C(CNS(=O)(=O)c1ccc(Br)s1)N1CCN(c2ccc(F)cc2)CC1	11.0	1.4	i	6.4	7.5	0.675	-0.8
COc1cccc(SCc2noc(C(=O)NCC3CCCO3)c2C(=O)O)c1 (centres undefined)	4.6	-4.6	i	2.3	0.8	0.698	-0.4
CCc1ccc(N2CC(C(=O)NC3CC3)CC2=O)cc1 (centres undefined)	-15.7	-0.9	i	-3.4	-3.0	·	·
COc1ccc(/C=C/CN2CCCC(CO)(Cc3cccc(Cl)c3)C2)cc1 (centres undefined)	·	3.4	i	2.1	0.8	0.681	0.6
O=C(NNC(=S)NC1CCCCC1)c1ccccc1Br	18.7	-0.9	i	-3.2	1.9	0.667	2.6

Assay outcomes as filed in PubChem.
